Screens: PubChem BioAssay, several laboratories
Yeast UUG start: modulators of start codon recognition fidelity in yeast; S. cerevisiae UUG-firefly luciferase reporter, luminescence/redox ratio; activity score, % at 18.7 µM; actives 0.13% (n = 350,000);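 active means replicate mean at a twofold rise or more, about +100% in these data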;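 further: firefly luciferase made from a UUG start codon reports start codon fidelity; reporter light over untreated wells divided by growth signal over untreated wells; some hits fall short of that in this replicate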
MT1-MMP act inh: blocks activation of human MT1-MMP; P50281; HT1080 RFP-PRO-GFP cells, GFP/RFP ratio fluorescence, overnight; percent of plate control window, DMSO zero; actives 0.061% (n = 360,000); GFP/RFP ratio change, % at 20 µM;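 active means GFP/RFP ratio change of at least 30% with cell ATP level not reduced by more than half and red fluorescence within 50% of control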; further: strong numbers were not always called active
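Test system: HT1080 cells expressing an RFP-PRO-GFP fluorescent reporter construct / Compound dosing: single-point 20 µM compound, 1% DMSO / Schedule: cells overnight before dosing, compound overnight, 37 °C, 5% CO2 / Evaluation: GFP/RFP fluorescence ratio / Control set: DMSO and RFP-L50D-GFP cell wells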
HIV Env fusion: inhibitors of HIV Env-mediated cell fusion; AID 651610; HeLa-JRFL Env/CEM21 cell fusion, luciferase; actives 1.1% (n = 360,000); inhibition, % at 12.3 µM;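 active means mean replicate inhibition score of at least 50 and every replicate individually at or above 50; inconclusive means only one of the two criteria met; inactive means mean below 50 and not all replicates reaching 50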;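 further: 0% = plate neutral controls and 100% = maraviroc near 300 nM; one replicate is shown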
Rce1 inh: blocks yeast Ras-converting enzyme | yeast membranes, quenched prenylated peptide cleavage fluorescence | calls only | actives 0.27% (n = 290,000);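 active means fall in fluorescence gain of 50% or more versus controls, with final raw signal at or below 3038400; inconclusive means same 50% fall but final raw signal above 3038400; inactive means fall in fluorescence gain under 50%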;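 further: plate controls were neutral control wells for no effect and wells lacking membranes for full effect; tested at 10 µM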
eIF4H FP inh: inhibitors of RNA binding by human eIF4H | Q15056 | eIF4H fluorescence polarization binding assay | inhibition, % at 35 µM | actives 0.94% (n = 290,000) | AID 2012;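 active means 50% or more with normal probe brightness, or confirmed in later tests; inconclusive means above 50% with abnormal brightness, or retests that disagree; inactive means below 50% or failed in later tests; about a fifth of its hits are not listed in these tables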;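 further: calls also rest on retests at 20 µM and on dose response follow-up; 0% = protein and probe with vehicle and 100% = probe without protein; strong numbers were not always called active; many hits fall short of the cut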
PABP polyA inh: PABP-poly(A) binding inhibition. P11940. PABP-poly(A) RNA binding, fluorescence polarization. inhibition, % at 35 µM. actives 1% (n = 290,000);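 active means 50% or more with normal probe brightness, or confirmed in later tests; inconclusive means above 50% with abnormal brightness, or retests that disagree; inactive means below 50% or failed in later tests; about a fifth of its hits are not listed in these tables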;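 further: calls also rest on retests at 20 µM and on dose response follow-up; controls were probe without protein and protein plus probe with vehicle; some compounds called inactive have numbers as strong as hits; many hits fall short of the cut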
Target sequence (P11940 whole entry, looked up): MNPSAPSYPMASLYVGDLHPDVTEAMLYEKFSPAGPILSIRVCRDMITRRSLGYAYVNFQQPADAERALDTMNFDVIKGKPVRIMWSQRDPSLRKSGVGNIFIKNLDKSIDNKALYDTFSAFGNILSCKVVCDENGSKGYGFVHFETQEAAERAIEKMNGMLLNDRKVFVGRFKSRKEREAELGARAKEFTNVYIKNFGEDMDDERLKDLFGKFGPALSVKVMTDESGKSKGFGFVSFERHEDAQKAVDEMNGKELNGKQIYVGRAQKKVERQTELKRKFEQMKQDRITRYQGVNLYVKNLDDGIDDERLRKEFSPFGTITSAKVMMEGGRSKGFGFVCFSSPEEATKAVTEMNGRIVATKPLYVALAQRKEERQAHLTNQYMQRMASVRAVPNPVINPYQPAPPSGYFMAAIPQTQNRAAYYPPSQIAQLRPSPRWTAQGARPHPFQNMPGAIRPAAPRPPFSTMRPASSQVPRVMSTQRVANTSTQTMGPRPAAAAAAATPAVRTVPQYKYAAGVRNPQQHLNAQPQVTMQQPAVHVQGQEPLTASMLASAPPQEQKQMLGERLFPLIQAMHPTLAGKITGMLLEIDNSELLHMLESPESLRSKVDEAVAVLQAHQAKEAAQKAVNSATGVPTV
CSC inhib: blocks cancer stem cells | cancer stem cell-like cells viability, luminescence | inhibition, % at 7.5 µM | actives 1.1% (n = 300,000);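 active means mean at 75% or more and at least half the replicates too; inconclusive means mean and replicates disagree; tested in HMLE shEcad cells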;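 further: 0% = median of negative and 100% = median of positive control wells; the first replicate is given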
MT1-MMP act inh RFP: also measured in MT1-MMP act inh; calls as there; RFP signal change, %; measured here: RFP expression control read;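 0 = vehicle wells; hits needed this value within 50% of zero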
* marks the source's active call; other numbers are inactive results; i = inactive; ? = inconclusive; · = not tested or not shown. This is a subset, so the mix of outcomes need not match the whole.

SMILES | Yeast UUG start | MT1-MMP act inh | MT1-MMP act inh RFP | HIV Env fusion | Rce1 inh | eIF4H FP inh | PABP polyA inh | CSC inhib
Cc1ccc(C(O)(C(=O)NN(C(=O)c2ccccc2)c2ccccc2)c2ccc(C)cc2)cc1 | · | -4 | -6 | -26 | i | 10 | 0 | 7
S=c1[nH]ccn1-c1cccc(Cl)c1 | -6 | -1 | -2 | 6 | i | 7 | -8 | -15
COc1ccc(CN2CCC(n3nccc3NC(=O)C3CC3)CC2)c(Cl)c1OC | -20 | -3 | 1 | -7 | i | -3 | -9 | 12
O=C(C[C@@H]1C[C@H]2c3cc(NC(=O)C4CCC4)ccc3O[C@H]2[C@@H](CO)O1)NCc1ccc(-c2ccccc2)cc1 | -18 | 1 | -16 | 16 | · | · | · | ·
CN(CC(=O)Nc1ccc(Cl)c(C(F)(F)F)c1)C(=O)Cc1cccs1 | -3 | 9 | -5 | 23 | i | 2 | 3 | -1
CCOc1ccc(NC(=O)CNC(=O)c2ccc(OC)c(OC)c2)cc1 | -13 | -1 | 4 | · | · | 3 | -9 | -14
CSc1ncc(C(=O)Nc2ccc(Cl)cc2)c(C)n1 | 2 | -5 | 1 | 23 | i | 1 | -3 | -15
CCSc1ccc(-c2ccc(C)cc2)nn1 | · | 3 | -2 | -91 | i | 1 | -9 | ·
CCC[C@@H]1C[C@@H](C(=O)NC(C(C)Cl)[C@H]2O[C@H](SC)[C@H](O)[C@@H](O)[C@H]2O)N(C)C1 (stereo partly drawn) | -11 | -2 | 2 | -13 | i | -9 | 0 | -17
CCCNC(=O)c1ccccc1NC(=O)CN(c1ccccc1OCC)S(C)(=O)=O | -25 | 1 | 2 | -108 | i | 2 | -7 | ·
COc1cccc(-c2nc(CC(=O)O)cs2)c1OC | · | 4 | 5 | -3 | i | 0 | -2 | -5
CC(C)c1ccc(NCCC(=O)c2ccc(Br)cc2)cc1 | -23 | 2 | 3 | 27 | i | -3 | 10 | -16
CC(C(=O)NC(C)(C)C)N(Cc1cccs1)C(=O)CCN1CCc2ccccc21 (stereo not drawn) | · | -7 | -7 | 33 | i | -6 | 6 | -1
COC(=O)[C@@]1(Cc2ccc(F)cc2)[C@H]2c3cc(C(=O)N(C)C)n(Cc4ccccn4)c3C[C@H]2CN1C(=O)c1ccccc1 | · | · | · | -17 | · | 8 | 0 | 16
Cc1ccc(C(=O)N2CCN(S(=O)(=O)c3ccccc3[N+](=O)[O-])C2)cc1 | -3 | 6 | 7 | 6 | i | -6 | 1 | -4
O=C(/C=C/c1ccccc1)NC(=S)Nc1ccc(N2CCOCC2)c(Cl)c1 | -15 | 4 | 6 | 7 | i | -3 | 1 | ·
Cc1cccc(C)c1NS(=O)(=O)c1ccc(F)cc1 | -12 | 0 | 0 | · | i | -3 | -15 | -14
COc1nc(NCCO)nc(Nc2ccc([N+](=O)[O-])cc2)n1 | · | 0 | 0 | -19 | i | 4 | -3 | 4
COc1cccc(Cn2c(NCc3ccco3)nc3c2c(=O)n(C)c(=O)n3C)c1 | · | · | · | 75* | i | -13 | 0 | 0
Nc1cc(=O)nc(SCc2ccccc2)n1Cc1ccco1 | -11 | 4 | -1 | · | i | 12 | -3 | -3
COc1cc(-c2nc(CN3CCN(C(=O)c4ccco4)CC3)c(C)o2)ccc1F | -9 | 4 | -4 | 2 | i | -2 | 14 | -15
COc1cc(C(c2c(C)n(C)n(-c3ccccc3)c2=O)c2c(C)n(C)n(-c3ccccc3)c2=O)cc(Br)c1O | 6 | -1 | -1 | -9 | i | 0 | -6 | -7
Cc1ccc(Cn2nnnc2CN2CCC(O)(c3cccnc3)CC2)cc1 | · | -8 | -3 | 10 | i | -5 | 12 | 7
COc1ccc(CCNC(=O)CSc2nnnn2-c2ccccc2)cc1 | 6 | -4 | -5 | · | i | -1 | 1 | 1
O=C(N/N=C/c1cccc(Br)c1)c1ccc(Br)cc1 | · | 0 | 0 | -52 | · | -10 | 1 | 4

(next part)
SMILES | Yeast UUG start | MT1-MMP act inh | MT1-MMP act inh RFP | HIV Env fusion | Rce1 inh | eIF4H FP inh | PABP polyA inh | CSC inhib
CC(C)NC[C@H](O)c1ccc(O)c(O)c1 | 2 | 2 | 7 | 7 | · | · | · | -3
CCc1nnc(NC(=O)CSCc2cc(=O)n3nc(C)sc3n2)s1 | -6 | 2 | 0 | -1 | i | -5 | 6 | -17
Cc1ccccc1OCC(=O)N/N=C/c1cn(Cc2ccccc2)c2ccccc12 | -16 | -3 | -9 | -8 | i | -1 | 1 | 0
COc1ccc(OCC(=O)Nc2ccc3c(c2)nc(CCn2ccccc2=O)n3C)cc1 | -5 | 2 | 3 | -1 | i | 16 | -5 | -4
Cc1ccc(NC(=O)c2ccc(S(=O)(=O)N3CCCCC3)cc2)cc1 | -10 | -1 | -8 | -18 | i | -13 | -7 | ·
O=C(CCN1C(=O)/C(=C/c2ccccc2Cl)SC1=S)N1CCCC1 | -11 | -3 | -5 | 3 | i | -1 | 8 | 13
CCOC(=O)c1cc(-c2ccc(OC)cc2)nc2c1c(C)nn2CCC(N)=S | -8 | 3 | -7 | -3 | i | -4 | -1 | -12
COc1ccc(OCC(=O)OCC(=O)NC2CC2)cc1 | 6 | 4 | 2 | · | · | · | · | -14
COC(=O)[C@]1(C)N[C@H](CN(C)C(=O)c2ccc(F)cc2)[C@@H]2C(=O)N(Cc3ccccc3)C(=O)[C@@H]21 | 7 | 1 | 1 | 16 | · | · | · | 0
Cc1ccc(C(=O)OCC(=O)N2CCC(Cc3ccccc3)CC2)cc1N | 15 | 0 | -1 | 8 | i | 35 | -1 | 19
Cc1cc(NC(=O)c2ccc(Cl)cc2)n(CCOC(=O)c2ccc(Cl)cc2)n1 | -1 | -2 | -4 | -16 | i | ? | -24 | -3
COc1ccc(CCNc2nc(-c3sc(C)nc3C)cs2)cc1OC | -16 | 1 | 5 | -33 | i | 11 | 44 | -12
O=C1CC(c2ccccc2)NC(=S)N1 (stereo not drawn) | -23 | 5 | 5 | 20 | · | · | · | ·
CNc1ccc2ncc(-c3cccc(C(=O)N(C)C)c3)n2n1 | -4 | -10 | -12 | ? | · | · | · | ·
CC1CCCC(C)N1C(=O)CSc1nc2ccccc2c(=O)[nH]1 (stereo not drawn) | -17 | 4 | 0 | -3 | i | 0 | 3 | -8
COC(=O)c1cccc(NC(=O)/C=C/c2cccc([N+](=O)[O-])c2)c1 | · | 6 | -9 | · | i | -12 | -4 | -13
CCN(CCn1cccn1)C(=O)c1cc(COc2ccccc2SC)on1 | 2 | 1 | 1 | -76 | i | 0 | 2 | -7
CC(Sc1nccn1C)C(=O)c1c(N)n(C)c(=O)n(C)c1=O (stereo not drawn) | -10 | 3 | 0 | 22 | i | · | · | -6
O=C(CN1C(=O)COc2ccccc21)Nc1ccc(F)cc1 | -12 | 2 | 1 | -65 | i | 6 | 0 | 27
COc1ccccc1C=NN=Cc1ccccc1OC | -12 | 2 | 3 | -17 | · | · | · | ·
OC1CCCC1 | -10 | -1 | 7 | · | · | · | · | -6
O=C(COC(=O)CNC(=O)c1cccc([N+](=O)[O-])c1)Nc1cccc(S(=O)(=O)N2CCCC2)c1 | · | -4 | -8 | 2 | i | -2 | -13 | -8
COC(=O)[C@H](CC(C)C)N(Cc1ccccc1)S(=O)(=O)N(Cc1ccc(OC)cc1)[C@@H](CC(C)C)C(=O)OC | -3 | -5 | -19 | 75* | · | · | · | 10
CCN(CC)S(=O)(=O)c1cccc(-c2nnc(SCC(=O)NCCC3=CCCCC3)n2N)c1 | 2 | 1 | -14 | -57 | i | 6 | 0 | -5
CC(=O)n1nc(-c2ccco2)nc1SCc1ccccc1 | -18 | 4 | 4 | · | i | 10 | -18 | -14

Two entries from above, reformatted.
canonical_smiles	Yeast UUG start	MT1-MMP act inh	MT1-MMP act inh RFP	HIV Env fusion	Rce1 inh	eIF4H FP inh	PABP polyA inh	CSC inhib
CCN(CC)S(=O)(=O)c1cccc(-c2nnc(SCC(=O)NCCC3=CCCCC3)n2N)c1	2	1	-14	-57	i	6	0	-5
CC(=O)n1nc(-c2ccco2)nc1SCc1ccccc1	-18	4	4	·	i	10	-18	-14

(next part)
SMILES | Yeast UUG start | MT1-MMP act inh | MT1-MMP act inh RFP | HIV Env fusion | Rce1 inh | eIF4H FP inh | PABP polyA inh | CSC inhib
CCOC(=O)CSc1nnc(C)c(=O)[nH]1 | -3 | -3 | -2 | · | i | 1 | 7 | 3
CCOc1ccc2nc(SCC(=O)NC3CCCCC3)[nH]c2c1 | -10 | 1 | -3 | 3 | i | -4 | -5 | -4
Cc1cc(C)cc(C(=O)NC(CC(N)=O)c2ccc(NC3CCCCCCC3)c([N+](=O)[O-])c2)c1 (stereo not drawn) | -11 | 1 | -1 | -12 | i | -5 | -1 | 25
COc1ccc(NC(=O)N(C)[C@H]2C[C@H]3c4[nH]c5ccccc5c4CCN3C[C@H]2[C@H](C)O)cc1 | -17 | 1 | 2 | -59 | · | · | · | ·
CCC(C)[C@H]1CNC(=O)C(=O)N1CCCc1cc(OC)c(OC)c(OC)c1 (stereo partly drawn) | 21 | -1 | 4 | 4 | i | 2 | -6 | -6
O=C(CSc1nnnn1C1CCCCC1)NCCc1ccccc1 | 4 | 0 | 2 | · | i | -6 | -2 | -1
CCc1ccccc1OCC(=O)Nc1ccc2c(c1)OCCO2 | 12 | 1 | 2 | -30 | · | 4 | -1 | -11
O=S(=O)(N/N=C/c1ccc(F)cc1)c1ccccc1 | -14 | -3 | 2 | 4 | i | 10 | -9 | 3
Cn1c2c(c(=O)[nH]c1=O)C(NC(=O)c1ccco1)(C(F)(F)F)C(=O)N2 (stereo not drawn) | -7 | 2 | 4 | -7 | · | 10 | -3 | 10
CCOC(=O)N1CCN(C2CCCN(C(=O)c3cccc(N(C)C)c3)C2)CC1 (stereo not drawn) | -4 | 1 | 2 | 5 | i | -6 | -4 | -2
CCNC(=O)C1(C)CCCN(Cc2ccc(-c3ccccc3)o2)C1 (stereo not drawn) | -15 | 0 | 3 | 24 | · | · | · | ·
Cc1cc(C)c(S(=O)(=O)NC2CC2)c(C)c1 | -18 | 1 | 5 | -7 | i | -5 | 12 | 0
CC1CN(C(=O)CCC(=O)N2CCN(c3ccccn3)CC2)c2ccccc2O1 (stereo not drawn) | -1 | 5 | 2 | -4 | i | -5 | -8 | ·
COc1ccc(NC(=O)CSc2nc3ccccc3c(=O)n2CCCN2CCOCC2)c(OC)c1 | -1 | 6 | 7 | 10 | i | 1 | 12 | -1
COc1ccccc1-n1c(SCC(=O)Nc2ccc(Br)cc2)nc(O)cc1=O | -4 | 6 | 6 | -1 | i | 10 | -2 | -2
Cc1cccn2c(CN[C@@H]3CCCC[C@H]3c3ccccc3)c(C(=O)N3CCOCC3)nc12 | 1 | 4 | 2 | 47 | i | -4 | -5 | -16
N#CC(C#N)=C1C(=O)N(CCN2CCCCC2)c2ccccc21 | -3 | 2 | 9 | 0 | i | 0 | -6 | -13
O=C(CN1C(=O)S/C(=C\C=C\c2ccccc2)C1=O)Nc1cccc(O)c1 | -15 | -11 | -10 | -58 | i | -4 | -3 | 93*
Cc1ccc(OCC(=O)c2cc(C)n(-c3cc(C)on3)c2C)c([N+](=O)[O-])n1 | 1 | -4 | -9 | -9 | · | · | · | ·
O=C(OCC1OC(n2cc(Br)c(=O)[nH]c2=O)C(Br)C1O)c1ccccc1 (stereo not drawn) | 2 | -1 | 1 | -7 | i | -7 | -8 | -1
CCOC(=O)CSC1=NC(=O)/C(=C/c2ccc(Br)cc2)S1 | · | -6 | -2 | -9 | i | 1 | -14 | 27
CC(=O)Oc1ccc(Cn2c(C)c(C(=O)NCc3ccccc3C(F)(F)F)sc2=O)cc1 | -2 | 3 | -3 | 0 | · | · | · | ·
